# Screening data deposited in PubChem by ICCB-Longwood Screening Facility, Harvard Medical School.
# MenB inh: inhibitors of Mycobacterium tuberculosis MenB enzyme. P9WNP5. MenB enzyme assay, absorbance read-out; some hits fall short of the stated cut. inhibition, %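 (about 12 µg/mL by stock and volumes)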. actives 0.43% (n = 100,000). AID 540299;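 active = mean of two replicates above 30%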;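 also: 0% = no compound and 100% = wells with inactive enzyme; the first replicate is given; strong numbers were not always called active; inactives centre near -10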
# Target sequence (P9WNP5 whole entry, looked up): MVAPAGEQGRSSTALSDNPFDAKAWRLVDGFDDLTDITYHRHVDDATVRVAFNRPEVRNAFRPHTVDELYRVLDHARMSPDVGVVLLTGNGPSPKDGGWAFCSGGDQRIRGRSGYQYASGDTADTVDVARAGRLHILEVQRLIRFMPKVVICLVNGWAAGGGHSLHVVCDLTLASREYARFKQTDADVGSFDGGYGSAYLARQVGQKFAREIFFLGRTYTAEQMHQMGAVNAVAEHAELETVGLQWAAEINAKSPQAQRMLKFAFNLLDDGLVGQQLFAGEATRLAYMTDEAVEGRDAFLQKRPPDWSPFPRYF
# MbtI inh: blocks the Mycobacterium tuberculosis siderophore enzyme MbtI; P9WFX0; purified MbtI enzyme, fluorescence intensity read-out; inhibition, %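 (about 17 µg/mL by stock and volumes)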; actives 0.89% (n = 100,000); AID 493033;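 active = above 50% in both replicates, above 80% if mildly self-fluorescent; inactive = the rest, strongly fluorescent compounds included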;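 also: 0% = mean of negative and 100% = mean of positive controls; one replicate is shown; some compounds called inactive have numbers as strong as hits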
# PV pol inh: poliovirus RNA polymerase inhibition; P03300; poliovirus polymerase elongation, fluorescence polarization; stronger effect = lower value; % elongation, % (compound at 16.7 µg/mL); actives 0.66% (n = 150,000); AID 588519; in the data active = % elongation below about 90%; also: some results filed as inactive read as strong as hits
# Target sequence (P03300 1749-2209 limits assumed): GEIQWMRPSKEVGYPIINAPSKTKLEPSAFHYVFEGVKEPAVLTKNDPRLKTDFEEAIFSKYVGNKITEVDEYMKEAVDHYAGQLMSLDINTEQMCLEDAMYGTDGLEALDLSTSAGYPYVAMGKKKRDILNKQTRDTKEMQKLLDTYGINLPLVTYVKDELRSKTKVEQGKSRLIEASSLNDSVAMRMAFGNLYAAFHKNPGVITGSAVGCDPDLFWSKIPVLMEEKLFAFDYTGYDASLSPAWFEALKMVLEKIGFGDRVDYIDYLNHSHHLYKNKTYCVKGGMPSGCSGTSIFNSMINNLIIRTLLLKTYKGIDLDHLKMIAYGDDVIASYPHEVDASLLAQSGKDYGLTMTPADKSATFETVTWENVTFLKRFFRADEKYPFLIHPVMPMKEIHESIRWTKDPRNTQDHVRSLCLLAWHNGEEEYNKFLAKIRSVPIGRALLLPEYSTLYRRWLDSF
# PV pol inh intensity: second read-out of PV pol inh, no call of its own (marks repeat the call); % elongation; measured here: total intensity read-out; formula for this scale not given here;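 total fluorescence in place of polarization; lower means less elongation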
# Starred values were filed as active, the others as inactive; / = not tested or not shown; & = joins results of further samples.
SMILES	MbtI inh	MenB inh	PV pol inh	PV pol inh intensity
c1ccc(Nc2nc3ccccc3[nH]2)nc1	44	/	105	109
CN(C)Cc1ccc(C(=O)NN)o1	-2	10	99	102
CCN(Cc1ccccc1)C(=O)c1cccnc1	/	-24	107	111
Cc1ccc(NC(=O)Nc2c(C)nn(C)c2C)cc1	-8	-1	103	107
Cn1c(-c2ccc3nc(N)sc3c2)nc2cc(N)ccc21	/	3	104	105
N#CCn1c(COC(=O)C2CC(=O)N(CCc3ccccc3)C2)nc2ccccc2c1=O (configuration not stated)	-15	-12	106	111
CCOC(=O)c1sc(N)c(C#N)c1COC(=O)c1ccc(S(=O)(=O)N2CCCC2)cc1	2	-5	45	241
COc1ccc(CN(C)C(=O)C2CCCN2C(=O)c2cccs2)cc1 (configuration not stated)	-1	-35	104	105
O=C(CSc1nc2ccccc2nc1N1CCCC1)NCCc1ccc(Cl)cc1	1	-31	103	107
O=C(CSCC(=O)c1ccccc1)c1ccccc1	15	-14	105	101
Cc1cc(C)c(CC2C(=O)c3ccccc3C2=O)cc1C	/	-23	108	105
O=C(NCc1ccco1)c1cc(-c2ccccn2)nc2ccccc12	-5	/	100	98
Cc1c(NC(=O)c2ccc(S(=O)(=O)N3CCCC3)cc2)c(=O)n(-c2ccccc2)n1C	-7	-22	102	101
CC(=O)Nc1nc(C)c(C(C)C)s1	4	/	102	109
Cc1nn(-c2ccccc2)c2c1C(c1ccc3c(c1)OCO3)C(C#N)C(=O)N2 (configuration not stated)	-43	-13	102	105
O=C(/C=N/O)c1ccc(Cl)cc1Cl	16	-5	101	99
O=C(CSc1cccc2cccnc12)NCc1ccccc1	/	-2	122	209
O=C1SC(C2SC(=O)N(Cc3ccc(F)cc3)C2=O)C(=O)N1Cc1ccc(F)cc1 (configuration not stated)	-39	-23	104	107
c1ccc2[nH]c(SCCSc3nc4ccccc4[nH]3)nc2c1	1	-14	105	103
Cc1cc(=O)oc2ccc(OC(=O)Cc3cccs3)cc12	-8	1	101	102
CCOc1ccc(N(C(C)=O)C2=NCCCS2)cc1	1	-8	101	101
Cc1cc(N=CNOC(=O)c2nn(-c3ccccc3)nc2C)no1	31	-16	104	106
O=C(O)CCNC(=O)c1ccc(NC(=O)Cc2ccc(Cl)cc2)cc1	-17	-21	101	104
CC(C)Sc1n[nH]c(=S)s1	98*	-104	88*	87*
Cc1ccc(-n2nc(C)c(/C=N/NC(=O)Cc3csc(C)n3)c2Cl)cc1	10	-10	102	107
CCn1c(CSc2ncccn2)nnc1SCC(=O)N1CCc2ccccc21	8	-26	103	102
Clc1nnc(N/N=C/c2ccccc2)c2ccccc12	3	-150	100	103
CC(NC(=O)CC#N)c1ccccc1 (configuration not stated)	-10	/	100	97
CC(=O)Nc1nc(N(C)C)nc(N(C)C)n1	-8	-54	102	98
CC(Nc1nc2ccccc2s1)C(=O)O (configuration not stated)	-4	13	98	102
O=C1CSC2=NCN(c3ccccc3)CN12	/	-5	102	110
CCNC(=S)N1CCN(CC)CC1	-7	-12	101	104
O=C(Cn1c(-c2cccs2)cc2ccccc21)N1CCN(c2ccccc2)CC1	-84	-5	101	101
CCOc1ccc(-n2cc(C(=O)NC(C)c3cccs3)nn2)cc1 (configuration not stated)	-28	-3	103	103
O=C(Nc1ccccc1OC(F)F)C1=NN(c2nc3ccccc3[nH]2)C(=O)CC1	-46	-35	43	232
COc1ccc(-c2nc(C#N)c(N3CC(C)CC(C)C3)o2)cc1 (configuration not stated)	2	-14	99	101
Cc1cc(C)cc(NS(=O)(=O)CC23CCC(CC2=O)C3(C)C)c1 (configuration not stated)	-4	/	101	99
CCCCn1c(=O)[nH][nH]c1=S	78*	-17	96	82
O=C(COC(=O)C1CC(=O)N(Cc2ccco2)C1)c1ccc2ccccc2c1 (configuration not stated)	-19	-40	102	105
O=S(=O)(Nn1cnnc1)c1ccccc1Cl	-8	-15	99	100
C#CCOc1cccc(CN(C)C(C)c2ccco2)c1 (configuration not stated)	1	-39	104	104
Cc1ccc(-c2nc(CS(=O)(=O)CC(=O)N3CCc4ccccc43)c(C)o2)cc1	-3	-15	102	105
CC1(C)CC(NC(=O)C23CCC(C)(C(=O)C2)C3(C)C)CC(C)(C)N1 (configuration not stated)	/	0	106	107
N#Cc1ccc(NC(=O)CCC2CCCC2)cc1	-11	-18	101	97
CCC(C)C1NC(=O)C(CCNCS(=O)(=O)O)NC(=O)C(NC(=O)C(CCNCS(=O)(=O)O)NC(=O)C(NC(=O)C(CCNCS(=O)(=O)O)NC(=O)CCCCC(C)C)C(C)O)CCNC(=O)C(C(C)O)NC(=O)C(CCNCS(=O)(=O)O)NC(=O)C(CCNCS(=O)(=O)O)NC(=O)C(C(C)CC)NC1=O (configuration not stated)	-3	13	99	103
Nc1ncnc2c1c(I)cn2C1OC(CO)C(O)C1O (configuration not stated)	-7	-6	103&100	101&101
C#CC(CC)(CC)NC(=O)Cc1n[nH]c(=O)c2ccccc12	4	5	111	112
c1ccc(-c2nnc(CN3CCCCC3)o2)cc1	1	8	101	102
CC1C/C(=C\C=C\N(C)C)C(=O)/C(=C/C=C/N(C)C)C1 (configuration not stated)	15	-31	72	196
COc1ccc(C2=NN(C(=O)CSCc3ccco3)C(c3cccc(OC)c3OC)C2)cc1 (configuration not stated)	93	-17	99	104

# (listing goes on)
SMILES	MbtI inh	MenB inh	PV pol inh	PV pol inh intensity
Cc1ccc(C(O)(C(F)(F)F)C(F)(F)F)o1	-20	-18	104	110
O=C(CCCSc1nc(-c2ccco2)cc(C(F)(F)F)n1)NCC1CCCO1 (configuration not stated)	-7	-18	101	102
O=c1[nH]c2ccsc2c(=O)n1CCO	-8	-16	101	107
COc1ccc(CCNC(=O)CC#N)cc1OC	-3	/	105	106
CCN1C(=O)/C(=C2\C=Cc3ccccc3N2CC)OC1=S	3	-6	98	96
COc1ccc(C2N(c3ccccc3)OC(=O)N2c2ccccc2)cc1 (configuration not stated)	4	-21	101	98
O=C(Cc1ccccc1)NC1CCCCC1NC(=O)Cc1ccccc1 (configuration not stated)	/	3	103	100
CN(Cc1ccccc1)C(=O)CN1C(=O)c2ccccc2S1(=O)=O	-5	/	103	95
O=C(COC(=O)c1ccco1)NC1CC1	-2	/	99	95
Cc1cc2oc(=O)cc(C)c2cc1N	8	-3	101	102
Cc1cc(NC(=O)c2ccc(=O)[nH]c2)ccc1Br	9	-10	102	107
CC1CCN(c2ncnc3c2cnn3C)CC1	6	-14	100	100
COc1ccc(OCC(=O)N2CCN(c3cccc(C(F)(F)F)c3)CC2)cc1	16	-19	105	104
C[N+]1(C)CCC(OC(=O)C(O)(c2ccccc2)C2CCCC2)C1 (configuration not stated)	-8	-6	100	102
Oc1ccccc1CNC1CCN(Cc2ccccc2)CC1	-20	2	105	101
CCNc1c(NC(=O)Nc2ccc(CC)cc2)c(=O)oc2ccccc12	18	-22	102	101
NNC(=O)c1nc(-c2ccccc2)n2c1CCCCC2	-3	-3	102	99
COc1ccc2c(COC(=O)c3ccc(C)c(S(=O)(=O)N4CCOCC4)c3)cc(=O)oc2c1	-13	-29	103	109
O=c1[nH]cnc2c1cnn2-c1ccccc1	-2&14	1&-34	104&101	106&100
Cc1ccc(Nc2c(O)[nH]c(=O)n2N)cc1	/	-40	99	96
Cc1ccc(-c2cccc(-n3c(C)ccc3-c3cccc(N)c3)c2)o1	90	-33	101	107
Cc1ccc(C2=NS(=O)(=O)N(C)C(C(=O)Nc3sc4c(c3C(N)=O)CCCC4)=C2)cc1	58*	-67	94	107
CC(C)N(Cc1ccc(N(C)C)cc1)C(=O)c1sc2ccccc2c1Cl	-11	-14	110	116
O=C(CSc1nnc(-c2ccccc2)n1-c1ccccc1)NC1CC1	/	-2	106	111
N#Cc1ccccc1COC(=O)CCC(=O)c1cccs1	-6	-24	99	90
Cc1ccc2[nH]c(=S)oc2c1	61*	-28	99	92
CCc1nnc(NC(=O)COc2cc(C)c(Cl)c(C)c2)s1	-2	-16	105	106
C[C@H](NC(N)=O)C(=O)N1CCc2ccccc21	6	-12	104	102
CCC(C)(C)C1CCc2oc3ccc(NS(=O)(=O)c4cccs4)cc3c2C1 (configuration not stated)	-83	-22	102	104
CCc1nc(SC)ncc1C(=O)NCc1ccc(OC)cc1	-3	-11	101	103
CSc1cccc(NC(=S)N(CCc2ccncc2)C(C)C)c1	3	-4	102	99
COc1ccc2[nH]c(=O)c(CN(C(C)=O)c3cccc(C)c3)cc2c1	/	-15	105	107
CCN=C1NC(=NCC)c2ccccc21	28	-15	112	118
Cc1cccc(NS(=O)(=O)c2ccc(C(=O)NC3=NCCS3)cc2)c1C	-1	-8	104	100
Cc1csc(N(C(=O)CCc2nc3ccccc3o2)c2ccccc2)n1	4	11	105	106
COc1cccc(NC2CC(=O)N(c3c(C)cccc3C)C2=O)c1 (configuration not stated)	53	-4	105	101
C#CCn1c(C2CC(=O)N(c3cccc(C(F)(F)F)c3)C2)nc2ccccc21 (configuration not stated)	-1	-34	/	/
CCCC(C(=O)NC1CCCC1)N(C(=O)Cn1nnc(-c2ccc(C)o2)n1)C1CCCC1 (configuration not stated)	-8	-6	102	102
COC(=O)c1sccc1NNC(=O)/C(C)=C/C(=O)O	17	-1	101	102
N#CCCn1cc(C(=O)Oc2ccccc2)c(-c2cccc(Br)c2)n1	-2	-4	102	106
CC(=O)Nc1nnc(SCc2cc(=O)n3ccsc3n2)s1	-15	-12	101	101
O=C(CSCC(=O)c1ccc(-c2ccccc2)cc1)Nc1ccc2ccccc2c1	/	-6	99	100
CNc1ccc2nnc(CCNC(=O)c3ccccc3)n2n1	-7	5	99	105
Cc1cc(C)n2nc(SCCC(=O)NCc3c(F)cc(F)cc3F)nc2n1	19	0	99	100
CN(CC(=O)Nc1ccccc1N1CCOCC1)Cc1ccc(Cl)cc1	-2	-7	96	104
C=C(C)c1cccc(C(C)(C)NC(=O)NC23CC4CC(CC(C4)C2)C3)c1	11	-17	100	104
CCCC1c2ccsc2CCN1C(=S)Nc1ccc(Cl)cc1Cl (configuration not stated)	5	-11	109	104
Cc1ccc2c(c1)-c1c(cnn1CC(=O)N1CCc3ccccc31)CO2	-1	4	103	102
CN=C1S/C(=C\c2cn(CC(=O)O)c3ccccc23)C(=O)N1C	14	-137	103	98
Clc1cccc(-n2c(SCC3CC3)nnc2C2CC2)c1	-2	-5	101	99

# Going on with the list:
SMILES	MbtI inh	MenB inh	PV pol inh	PV pol inh intensity
CC1CC(C)CN(C(=O)C2=COCCO2)C1 (configuration not stated)	-6	-6	98	92
Cc1ccc(NC(=O)Cn2c(SCc3cccc(C(F)(F)F)c3)nc3cccnc32)cc1C	-113	-7	102	105
COc1cccc2cc(C(=O)NCCN(C)C)c(=O)oc12	9	0	99	101
CN1C(=O)c2ccccc2C(C(=O)NC2CC2)C1c1cn(C)c2ccccc12 (configuration not stated)	-9	2	103	103
COc1ccc(Cl)cc1NC(=O)C(C)Oc1ccc(NC(=O)c2ccco2)cc1 (configuration not stated)	21	-30	104	112
O=C1c2ccccc2C(=O)N1CCCN1CCN(c2nccc(C(F)(F)F)n2)CC1	-11	-3	108	111
CCCn1c(=O)c2ccccc2n2c(=S)[nH]nc12	75*	-30	101	90
CCN1C(=O)S/C(=C\C(=O)O)C1=O	12	-20	106	104
C/C(=N\NC1=NCCCN1)c1ccccc1	5	-4	102	105
CCC1CCCCN1C(=O)Cn1c(=O)n(-c2cc(F)ccc2F)c(=O)c2sccc21 (configuration not stated)	-14	-10	100	106

# Continued (6 carried over from the part before).
SMILES	MbtI inh	MenB inh	PV pol inh	PV pol inh intensity
COc1ccc(Cl)cc1NC(=O)C(C)Oc1ccc(NC(=O)c2ccco2)cc1 (configuration not stated)	21	-30	104	112
O=C1c2ccccc2C(=O)N1CCCN1CCN(c2nccc(C(F)(F)F)n2)CC1	-11	-3	108	111
CCCn1c(=O)c2ccccc2n2c(=S)[nH]nc12	75*	-30	101	90
CCN1C(=O)S/C(=C\C(=O)O)C1=O	12	-20	106	104
C/C(=N\NC1=NCCCN1)c1ccccc1	5	-4	102	105
CCC1CCCCN1C(=O)Cn1c(=O)n(-c2cc(F)ccc2F)c(=O)c2sccc21 (configuration not stated)	-14	-10	100	106
Cc1cc(-c2noc(COc3c(F)c(F)cc(F)c3F)n2)c2ccccc2n1	5	8	99	104
Cc1oc2c(F)c(F)c(F)c(F)c2c1C(=O)NC1CCCCCC1	-1	3	103	111
Cc1[nH]c(=O)[nH]c(=O)c1/C=N\NC(=O)c1cc2ccccc2o1	-10	-42	102	103
C=CCn1c(Cc2ccc(OC)c(Cl)c2)n[nH]c1=S	91*	-20	103	103
O=C(NC1CCCCC1)c1cc(-c2ccc(Cl)cc2)n[nH]1	-19	-13	105	102
Cc1cc(OCC(=O)NC2CCCCCC2)no1	5	13	106	99
COc1ccc(C(=O)CC(=O)c2ccccc2O)cc1	-410	18	103	103
